HSV augment = increases HSV replication in cells | HSV replication augmentation in cells, fold increase | maximum fold increase | hit rate 0.005% among 220,000 | AID 1956;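 active means peak rise of 1.5-fold or more in the series; tested in PC3 cells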;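 further: first round at 10 µM; read as green reporter fluorescence; hits show the peak of a series up to 25 µM; 1 = signal of infected wells without compound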
GALR2 agonist = activates the human galanin receptor 2. O43603. GALR2-expressing cells, agonist activation read-out. activation, %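 (tested at 5 µM)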. hit rate 0.48% among 140,000. AID 803;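 active means above mean plus 3 SD of all compounds, about 5% in these data, not always enough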;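 further: 0% = vehicle buffer wells and 100% = reference agonist at full effect; tested in CHO reporter cells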
Target sequence (O43603 whole entry, looked up): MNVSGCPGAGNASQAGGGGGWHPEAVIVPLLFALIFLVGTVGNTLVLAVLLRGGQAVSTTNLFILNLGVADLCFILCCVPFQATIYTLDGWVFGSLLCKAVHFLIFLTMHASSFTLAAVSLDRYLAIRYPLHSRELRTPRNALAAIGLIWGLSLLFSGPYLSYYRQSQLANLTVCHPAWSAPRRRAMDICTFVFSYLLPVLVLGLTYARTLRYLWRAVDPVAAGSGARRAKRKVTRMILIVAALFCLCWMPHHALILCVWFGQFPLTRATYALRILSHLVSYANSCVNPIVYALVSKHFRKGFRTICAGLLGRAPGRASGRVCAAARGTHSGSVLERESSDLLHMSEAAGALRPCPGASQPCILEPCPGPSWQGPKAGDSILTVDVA
RGS16-Gao HTS = regulators of human RGS16-Galphao interaction. bead-based flow cytometry RGS16-Galphao binding, fluorescence; actives lie on both sides. O15492+P09471. hit rate 0.38% among 220,000. binding response (% of control), % at 10 µM;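 active means below 25% or above 175%, edge rows of some plates excepted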;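 further: Galphao activated by GDP with aluminum fluoride before binding; 100% = wells without compound and 0% = beads without RGS; some results beyond the cut were filed as inactive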
Target sequence (O15492 whole entry, looked up): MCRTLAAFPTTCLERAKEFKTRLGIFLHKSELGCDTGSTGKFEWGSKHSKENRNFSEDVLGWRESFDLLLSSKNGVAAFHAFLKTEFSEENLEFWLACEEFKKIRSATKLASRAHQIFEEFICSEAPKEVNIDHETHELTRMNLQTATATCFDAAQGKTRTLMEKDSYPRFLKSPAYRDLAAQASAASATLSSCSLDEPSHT
Target sequence (P09471 whole entry, looked up): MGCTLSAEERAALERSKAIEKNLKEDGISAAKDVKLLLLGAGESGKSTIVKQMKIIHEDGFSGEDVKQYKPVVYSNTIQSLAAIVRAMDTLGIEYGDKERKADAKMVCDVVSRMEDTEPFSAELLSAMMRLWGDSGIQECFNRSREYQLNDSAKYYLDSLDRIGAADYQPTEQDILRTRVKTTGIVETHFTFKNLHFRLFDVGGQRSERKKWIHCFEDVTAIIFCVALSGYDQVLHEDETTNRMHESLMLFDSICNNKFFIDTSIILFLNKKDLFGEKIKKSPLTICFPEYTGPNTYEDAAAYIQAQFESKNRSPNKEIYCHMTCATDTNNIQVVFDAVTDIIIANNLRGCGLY
Insulin prom inh = TRM-6 insulin promoter activity inhibition | inhibition, % at 2 µM | TRM-6 cells (human fetal islet line), insulin promoter-eGFP reporter, imaging; reporter expression induced with tamoxifen | hit rate 0.9% among 130,000 | AID 1273;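 active means inhibition above the mean plus 3 SD, with well images judged a real hit on visual review, cut at about 60% in these data, passing the limit was not always enough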
PKD1 inh = inhibitors of human PKD1 kinase | Q15139 | inhibition, %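 (about 10 µM by stock and volumes)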 | hit rate 0.056% among 200,000 | PKD1 kinase fluorescence polarization assay;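 active means inhibition of 50% or more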;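 further: controls were vehicle for no effect and a reference inhibitor for full effect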
Insulin prom inh cell count = recorded beside Insulin prom inh, whose call it bears; normalized cell count, %; measured here: cell count, toxicity; reference of the scale not given here;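 cells exposed to compound for 48 h; stained nuclei by imaging scaled within each plate; lower means fewer cells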
HSV augment primary fold = recorded beside HSV augment, whose call it bears; fold increase; compound at 10 µM; measured here: primary screen fold increase 10 uM; tested in PC3 cells;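 GFP signal in the first replicate; 1 = infected wells without compound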
* marks the source's active call; other numbers are inactive results; i = inactive; . = no result given.

No.	Molecule	HSV augment	HSV augment primary fold	GALR2 agonist	RGS16-Gao HTS	Insulin prom inh	Insulin prom inh cell count	PKD1 inh
1	COc1ccc(NC(=O)NCc2ccccn2)cc1	i	1	-2.5	107	31	149	-7
2	CCN(CC)CCCNc1oc(-c2ccccc2[N+](=O)[O-])nc1C#N	i	1	.	102	.	.	.
3	COc1ccc2ccccc2c1CN1CCN(C(=O)c2ccccc2)CC1	i	0.88	-1.3	102	.	.	-5
4	Clc1cccc(CSc2nnc(-c3ccccn3)n2Cc2ccco2)c1	i	1.1	-0.3	102	-23	42	11
5	COc1ccc(-c2cc(-c3nnc(-c4ccncc4)o3)c3ccccc3n2)cc1	i	0.89	-0.4	99	41	130	-11
6	COc1ccc(-c2cccc(C(=O)NCC(=O)O)c2)cc1	i	0.77	-2.6	99	43	116	-3
7	CC(C)NC(=O)CN(CCc1ccccc1)S(C)(=O)=O	i	0.88	-2.1	105	.	.	-15
8	Cc1c(/C(O)=C2/C(=O)C(=O)N(CCN3CCOCC3)C2c2cccs2)cnn1-c1ccccc1 (centres undefined)	i	0.94	-2.4	206	52	96	-15
9	CCOC(=O)c1[nH]c(C)c(C(=O)OCC(=O)N(C)C2CCS(=O)(=O)C2)c1C (centres undefined)	i	1.1	.	100	0	156	-1
10	CCOc1ccc(C(=O)NCCc2ccccc2)cc1	i	0.92	-1.3	108	23	109	-1
11	CCOc1ccc(NC(=O)c2ccccc2CO)cc1	i	0.98	-2.0	95	.	.	-1
12	Cc1cc(/C=C(/C#N)C(=O)Nc2ccccc2)c(C)n1-c1cccnc1	i	0.94	-2.4	103	-27	102	2
13	O=C1C(=O)N2C(=C1C(=O)N1CCCCCC1)c1ccccc1CC21CCCC1	i	0.97	.	100	.	.	.
14	CC1CCc2c(sc(/N=C/c3ccco3)c2C(N)=O)C1 (centres undefined)	i	1.2	.	103	.	.	.
15	Cc1[nH][nH]c(=O)c1C(c1ccc(-c2cccc(Cl)c2)o1)c1c(C)[nH][nH]c1=O	i	0.82	.	92	.	.	.
16	COc1cc2c(cc1OC)C1(CCCC1)CNC2c1ccc([N+](=O)[O-])cc1 (centres undefined)	i	1.1	.	98	.	.	4
17	Brc1ccc(OCCn2ccnc2)cc1	i	0.91	0.9	98	40	104	6
18	COc1ccc2c(c1OC)C(=O)N(c1ncn[nH]1)C2	i	1.1	-0.6	97	-270	75	10
19	Cc1ccccc1-n1c(=O)cc(NCC2CCCO2)[nH]c1=O (centres undefined)	i	0.94	-1.2	102	-14	98	-2
20	Cc1c(OC(=O)CNC(=O)OC(C)(C)C)ccc2c3c(c(=O)oc12)CCC3	i	1	0.6	90	-25	59	10
21	NC(=O)C1CCN(C(=O)COc2ccc(S(=O)(=O)NCc3ccccc3)cc2Cl)CC1	i	0.87	-2.2	103	4	99	1
22	O=c1[nH]nc(Cc2ccc(Cl)cc2)c2ccccc12	i	0.91	-0.2	47	30	100	3
23	O=C1Nc2cc3c(cc2Sc2ccccc21)OCCO3	i	1	-2.4	96	90*	76*	4
24	CC1=NC(=O)C(N=Nc2cccc(C(=O)O)c2)N1c1ccccc1 (centres undefined)	i	1	0.0	100	14	66	-7
25	COc1cccc(-c2nc(CS(=O)(=O)CC(=O)Nc3cc(C)ccc3C)c(C)o2)c1	i	0.79	-1.1	97	.	.	-13
26	O=C(/C=C/c1cccc(Cl)c1)Nn1c(-c2cccs2)nc2ccccc2c1=O	i	0.94	0.6	106	9	99	1
27	Cc1ncsc1CCOC(=O)c1ccc(Cl)cc1	i	0.94	.	101	.	.	3
28	COc1ccc(C(NC(=O)C2C3C=CC(C3)C2C(=O)O)c2ccccc2)cc1 (centres undefined)	i	1	.	105	.	.	-3
29	NC(=O)CSc1nc2ccc([N+](=O)[O-])cc2[nH]1	i	1.1	.	100	-350	41	7
30	O=C(NCC1CCCO1)c1ccccc1-c1nc(-c2ccc(F)cc2)no1 (centres undefined)	i	0.98	-1.8	105	-50	129	-9
31	COc1ccc(C(=O)/C=C/c2ccc(OC3CSC3)cc2)cc1OC	i	0.88	-1.2	94	-19	118	-3
32	CCCCC(=O)OCc1nc(N)nc(Nc2ccccc2C)n1	i	0.84	-0.8	107	8	42	-8
33	O=C(CC1c2ccccc2Oc2ccccc21)N1CCN(c2ccccn2)CC1	i	0.66	-1.6	93	.	.	3
34	CCN(CC)CCCNC(=O)c1cc2nc3c(c(C(F)(F)F)n2n1)CCc1ccccc1-3	i	0.97	.	106	.	.	-1
35	CC1CCc2c(sc(NC(=O)c3ccc(-c4ccccc4[N+](=O)[O-])o3)c2C#N)C1 (centres undefined)	i	0.83	-2.3	81	.	.	5
36	CC(C)(C)SCCNC(=O)CN(c1ccccc1)S(=O)(=O)c1ccc(F)cc1	i	0.96	.	96	.	.	-3
37	CC(=O)Nc1ccc(NC(=O)CCSCCc2ccccn2)cc1	i	1	.	104	-6	128	2
38	O=C1C=C(Nc2ccccc2O)c2ccccc2C1=O	i	0.81	-1.9	84	-37	160	-2
39	O=C(CCc1nnc(CCc2ccccc2)o1)NC(c1cccnc1)C(F)(F)F (centres undefined)	i	1.1	.	101	.	.	.
40	CN(C)CCNc1c2c(nc3nnnn13)CCCC2	i	0.97	.	98	0	86	0
41	Cc1ccc(N2C(=O)C3ON(c4ccccc4)C(CC(C)C)C3C2=O)cc1 (centres undefined)	i	0.9	.	100	.	.	.
42	CCOC(=O)c1c(COC(=O)c2ccco2)nc2ccccc2[n+]1[O-]	i	0.96	-0.7	104	24	100	0
43	COc1cccc(CC(Cc2nc3ccccc3[nH]2)c2nc3ccccc3[nH]2)c1 (centres undefined)	i	1.1	.	107	-179	73	-2
44	COc1cccc(NC(=O)CN2CCN(S(=O)(=O)c3ccc(C(C)C)cc3)CC2)c1	i	0.87	-2.0	105	-19	107	-3
45	O=C(NCC1CCCO1)C1CC1(c1ccccc1)c1ccccc1 (centres undefined)	i	1.1	-0.4	101	.	.	-6
46	COc1ccccc1-c1c(C)oc2c(CN3CCN(C)CC3)c(O)ccc2c1=O	i	0.81	-0.4	100	12	132	-4
47	O=C(NC1CCCC1)C(c1cccs1)N(Cc1ccco1)C(=O)Cn1nnc(-c2cccs2)n1 (centres undefined)	i	0.94	-2.2	100	72	98	6
48	Cc1nn(S(=O)(=O)c2cccs2)c(C)c1Sc1ccccc1	i	0.94	-2.6	105	-73	96	-5

Full records, quoted from the list. Order of screens: HSV augment, HSV augment primary fold, GALR2 agonist, RGS16-Gao HTS, Insulin prom inh, Insulin prom inh cell count, PKD1 inh
COc1ccccc1-c1c(C)oc2c(CN3CCN(C)CC3)c(O)ccc2c1=O reads i, 0.81, -0.4, 100, 12, 132, -4
COc1cccc(NC(=O)CN2CCN(S(=O)(=O)c3ccc(C(C)C)cc3)CC2)c1 reads i, 0.87, -2.0, 105, -19, 107, -3

New compounds follow:
Results follow in this order: HSV augment	HSV augment primary fold	GALR2 agonist	RGS16-Gao HTS	Insulin prom inh	Insulin prom inh cell count	PKD1 inh
49) CCOc1ccc2c(c1)c(N=O)c(O)n2C
  i	0.85	-1.1	100	-87	115	-1
50) COc1cc(CCCN2C(N)=NC[C@@H]2c2ccccc2)cc(OC)c1OC
  i	0.87	.	101	.	.	.
51) CCOC(=O)c1ccc(N2C(=O)CC(Nc3ccc(O)cc3)C2=O)cc1 (centres undefined)
  i	0.95	.	101	.	.	.
52) COc1ccc(Cl)cc1NC(=O)Nn1cnnc1
  i	0.84	-1.6	105	33	108	-2
53) COc1ccccc1/C=C/C=N/n1c(-c2n[nH]c3c2CCC3)n[nH]c1=S
  i	1	.	107	.	.	.
54) C/C(=N\NC(=O)CCCOc1ccc(Cl)cc1C)c1ccc(C)o1
  i	0.93	-1.6	102	-43	65	-9
55) COc1ccc(Cn2nnnc2C(c2cc(OC)ccc2OC)N2CCC(C(N)=O)CC2)cc1 (centres undefined)
  i	0.99	-0.9	182	25	63	12
56) Cc1ccn2c(NC(=O)c3ccccc3)c(-c3cccs3)nc2c1
  i	0.94	-1.9	108	.	.	7
57) CCOc1ccc(/C=N/NC(=O)C(C)Sc2ccccn2)cc1OCC (centres undefined)
  i	0.91	0.9	101	-17	151	1
58) Cc1ccc2nc(Cl)c(C3CC(c4ccco4)=NN3C(=O)CCCC(=O)O)cc2c1 (centres undefined)
  i	0.96	.	108	.	.	.
59) CCOC(=O)C12CNC(=O)C(C(=O)OCC)(CNC1=O)C2
  i	1.1	-0.9	101	0	99	2
60) CCOC(=O)c1cnc(SCC(=O)Nc2ccc(NC(C)=O)c(OC)c2)nc1N
  i	0.8	-0.1	99	45	167	-12
61) CC(NC(=O)COc1ccccc1)C1COc2ccccc2O1 (centres undefined)
  i	1	-1.8	.	11	134	4
62) CC(C)OC(=O)C(C)Oc1ccc(C(=O)NCCc2ccccc2)cc1 (centres undefined)
  i	0.99	-1.8	124	38	88	-5
63) COc1ccc(C(=O)Nc2ccccc2C(=O)N/N=C/c2ccc(O)c(OC)c2)cc1
  i	0.98	-2.2	98	-23	100	9

An excerpt from above in order of their number in RGS16-Gao HTS, rising.
nr | canonical_smiles | RGS16-Gao HTS
38 | O=C1C=C(Nc2ccccc2O)c2ccccc2C1=O | 84
15 | Cc1[nH][nH]c(=O)c1C(c1ccc(-c2cccc(Cl)c2)o1)c1c(C)[nH][nH]c1=O | 92
24 | CC1=NC(=O)C(N=Nc2cccc(C(=O)O)c2)N1c1ccccc1 (centres undefined) | 100
59 | CCOC(=O)C12CNC(=O)C(C(=O)OCC)(CNC1=O)C2 | 101
12 | Cc1cc(/C=C(/C#N)C(=O)Nc2ccccc2)c(C)n1-c1cccnc1 | 103
28 | COc1ccc(C(NC(=O)C2C3C=CC(C3)C2C(=O)O)c2ccccc2)cc1 (centres undefined) | 105
53 | COc1ccccc1/C=C/C=N/n1c(-c2n[nH]c3c2CCC3)n[nH]c1=S | 107

(continued)
Results follow in this order: HSV augment	HSV augment primary fold	GALR2 agonist	RGS16-Gao HTS	Insulin prom inh	Insulin prom inh cell count	PKD1 inh
64) Cc1cccc(NC2=C(Cl)C(=O)OC2OC(C)C)c1 (centres undefined)
  i	1	.	99	.	.	1
65) COc1cccc(-c2nc(NC(C)(C)C)c3ccccc3n2)c1O
  i	0.84	0.5	102	.	.	-14
66) Cc1ccc(-c2cc(C(=O)Nc3ccc(S(=O)(=O)Nc4ncccn4)cc3)c3ccccc3n2)cc1
  i	1.1	-0.4	105	.	.	-17
67) CC(C)C(Nc1ccc(S(=O)(=O)N2CCOCC2)cc1[N+](=O)[O-])C(=O)O (centres undefined)
  i	0.9	.	90	.	.	-3
68) CC(Nc1ccccc1N1CCCCC1)C(=O)N1CCc2ccccc21 (centres undefined)
  i	1.1	.	97	.	.	-9
69) CN(C(=O)CSc1ncnc2sccc12)c1c(N)n(Cc2ccccc2)c(=O)[nH]c1=O
  i	0.93	.	103	.	.	.
70) COc1ccccc1NC(=O)C(=O)/C=C(\O)c1ccccc1
  i	0.92	.	95	.	.	.
71) O=C(O)c1ccc(C2SCC(=O)N2Cc2ccccc2)cc1 (centres undefined)
  i	0.77	-1.0	103	-350	69	-8
72) CC1=NN(c2ccccc2)C(=O)C1C(=O)c1ccccc1 (centres undefined)
  i	1.1	-0.1	103	.	.	-6

Screening data as filed in PubChem.
